Bioassay records: PubChem BioAssay, National Center for Advancing Translational Sciences (NCATS)
RXFP1 antag – RXFP1 (human) relaxin receptor antagonism; HEK293-RXFP1, relaxin-stimulated cAMP HTRF, 30 min; hits give low values; activity change, negative = inhibition, % at 57.5 µM; actives 0.59% (n = 350,000); AID 1259400;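 active = activity change of -60% or lower, but not beyond a set lower limit; inconclusive = change between -60% and -40%, or beyond the set limit; inactive = change above -40%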; also: % is scaled to controls: 0 for no effect and ±100 for the full control effect
D2 ag – agonists of human D2 dopamine receptor | P14416 | actives 0.53% (n = 340,000) | HEK293 T-REx D2 cells, calcium flux agonist mode | activation, % at 2 µM;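 active = activation over 3 SD above normal in the single-dose calcium agonist read, cut at about 30% in these data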; also: 0% is about no effect
Target sequence (P14416 whole entry, looked up): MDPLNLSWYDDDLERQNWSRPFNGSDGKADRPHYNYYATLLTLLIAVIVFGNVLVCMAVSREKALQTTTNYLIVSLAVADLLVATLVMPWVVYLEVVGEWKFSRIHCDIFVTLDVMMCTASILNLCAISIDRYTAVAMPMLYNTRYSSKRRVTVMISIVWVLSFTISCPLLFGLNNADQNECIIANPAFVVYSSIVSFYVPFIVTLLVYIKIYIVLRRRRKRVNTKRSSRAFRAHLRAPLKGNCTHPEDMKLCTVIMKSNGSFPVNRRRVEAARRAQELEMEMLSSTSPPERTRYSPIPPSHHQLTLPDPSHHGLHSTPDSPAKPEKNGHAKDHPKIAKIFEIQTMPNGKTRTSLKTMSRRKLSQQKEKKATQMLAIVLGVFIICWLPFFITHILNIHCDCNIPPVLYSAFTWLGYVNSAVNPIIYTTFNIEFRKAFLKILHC
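Calcium-flux readout, 1 cycle/sec over 180 s following compound pin transfer, in inducible HEK293 Trex D2 cells (force-coupled); dopamine controls included. Positive calcium responses during this window marked compounds as potential agonists.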
D1 antagonist – blocks dopamine activation of the human D1 receptor; activity change, negative = inhibition, % at 10 µM; P21728; actives 3.2% (n = 360,000); AID 504652; HEK293 TREx D1 cells, calcium flux, dopamine EC80; hits give low values; in the data active = activity change below about -30%; also: % is scaled to controls: 0 for no effect and ±100 for the full control effect
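Tetracycline-induced HEK293 Trex D1 cells, force-coupled to calcium, dye-loaded; compounds added and read 180 s, then EC80 dopamine added and calcium flux tracked kinetically another 180 s.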
D2 antagonist – antagonists of human D2 dopamine receptor; AID 485344; HEK293 TREx D2 cells, calcium flux, dopamine EC80; actives 2% (n = 340,000); P14416; inhibition, % at 10 µM; in the data active = inhibition above about 30%; also: 0% is about no effect
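Inhibition of EC80 dopamine-driven calcium flux, recorded kinetically, defines activity here; cells are a tetracycline-induced HEK293 T-REx line expressing force-coupled D2.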
D2 PAM – positive allosteric modulators of human D2 dopamine receptor; P14416; HEK293 T-REx D2, calcium flux, EC20 dopamine potentiation; potentiation, % at 10 µM; actives 0.34% (n = 340,000); AID 485347;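 active = potentiation over 3 SD above the plate norm, cut at about 30% in these data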; also: 0% is about no effect
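Potentiation of an EC20 dopamine calcium response is measured in a force-coupled, tetracycline-inducible Hek293 Trex D2 line. Compound-only kinetic reads over 180 s flag agonists before dopamine addition.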
D1 potentiator – enhances dopamine response at the human D1 receptor; potentiation, % at 10 µM; P21728; HEK293 TREx D1 cells, calcium flux, dopamine EC20 potentiation; actives 0.036% (n = 360,000); in the data active = potentiation above about 30%; also: 0% is about no effect
RXFP1 ag – agonists of human relaxin receptor RXFP1. HEK293T-RXFP1 cAMP TR-FRET, 30 min; response scale: percent of porcine relaxin response, buffer zero. Potency, µM (titrated, usually from 57.5 µM), for the others: top-dose activation, hits mostly activators. actives 0.3% (n = 370,000). AID 2676; active = well fitted activation curve with a large enough effect; inconclusive = small, poorly fitted or top-dose-only effect; also: potency is read from the fitted curve at half-maximal effect; % is scaled to controls: 0 for no effect and ±100 for the full control effect; nearly all actives have a fitted effect of over 60% in size; many of its hits are not listed in these tables
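Agonist response is measured as cAMP accumulation in an RXFP1-transfected HEK293T line under PDE4 inhibition. Values are scaled between buffer-only and 29 nM porcine relaxin, and EC50s come from standard Hill equation fits.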
* hit, by the source's call; u = inconclusive; x = not tested or not shown; & = joins results of further samples; ! = not confirmed by another sample. These rows are one share of the data; count on the stated rates, not on these rows.

nr	smiles	RXFP1 antag	D2 ag	D1 antagonist	D2 antagonist	D2 PAM	D1 potentiator	RXFP1 ag
1	Nc1ccc(S(=O)(=O)Nc2cnc3ccccc3n2)cc1	3.0&-9.5	1.3&0.0	4.6&3.3	4.7&2.6	-1.6&9.7	-6.8&-4.6	1.6%&-0.4%
2	Cc1cccc([N+](=O)[O-])c1C(=O)O	x	0.1	x	0.2	9.8	8.6	-0.1%
3	CC(=O)[C@H]1CC[C@H]2[C@@H]3CC=C4C[C@@H](O)CC[C@]4(C)[C@H]3CC[C@]12C	12.8&-19.6	-0.9	12.8	-16.3	10.5	-1.9	1.7%
4	C[C@]12C=CC(=O)C=C1CC[C@H]1[C@@H]3C[C@@H](O)[C@](O)(C(=O)CO)[C@@]3(C)C[C@H](O)[C@@]12F	-3.1	0.3	11.3	-4.6	-4.3	1.4	2.5%
5	CC(=O)N[C@@H](CS)C(=O)O	-7.4	1.7	-14.3	23.2	6.8	-1.1	-0.5%
6	C[C@]12C[C@H](O)[C@H]3[C@@H](CCC4=CC(=O)CC[C@@]43C)[C@@H]1CC[C@@H]2C(=O)CO	-11.6	-2.5	-8.5	11.3	4.8	2.3	3.6%
7	NC(N)=Nc1nc(CSCC/C(N)=N/S(N)(=O)=O)cs1	8.7	-2.0	-3.1	11.5	-6.2	4.5	2.2%
8	Cc1cc([N+](=O)[O-])ccc1N	-6.4	0.1	-11.5	-17.2	8.0	-3.8	0.1%
9	CC(=O)[C@H]1CCC2C3CC=C4C[C@@H](O)CC[C@]4(C)C3CC[C@@]21C (stereo partly specified)	-15.7	x	x	x	x	x	x
10	CCC1(c2ccccc2)C(=O)NCNC1=O	-26.6	1.8	-0.9	33.1*	4.1	-1.4	-0.2%
11	Cc1cc2nc3ccc(=[N+](C)C)cc-3sc2cc1N	u	-2.3	-12.4	7.4	10.9	-4.0	-17.4%
12	COc1cc(C(=O)NC2CCCNC2)cc(OC)c1OC (stereo unspecified)	8.3	-3.0	-4.9	-10.5	-10.1	0.2	1.8%

Remaining list, next part:
nr	smiles	RXFP1 antag	D2 ag	D1 antagonist	D2 antagonist	D2 PAM	D1 potentiator	RXFP1 ag
13	O=c1[nH]cnc2ccccc12	x	0.1	5.6	8.0	1.0	0.5	2.2%
14	Brc1ccc(-c2ccccc2)cc1	x	-0.1	x	4.1	4.2	-0.1	1.7%
15	CC1CC2C3CCC4=CC(=O)C=CC4(C)C3(F)C(O)CC2(C)C1(O)C(=O)CO (stereo unspecified)	2.2	0.7	2.2	1.4	25.1	1.7	0.6%
16	CCCCCCCCCCCCOS(=O)(=O)O	-12.2	x	x	x	x	x	x
17	Cc1cn([C@H]2C=C[C@@H](CO)O2)c(=O)[nH]c1=O	6.9	2.1&0.4&0.6	-21.1&-4.9	-5.6&1.9&12.3	-11.4&-3.2&-9.1	-3.9&1.0&0.7	-0.4%&1.7%&2.2%
18	c1ccc(Nc2ccccc2)cc1	-30.0	x	-0.7	x	x	-4.5	-1.7%
19	CSc1ccc(C=O)cc1	x	0.9	x	-9.5	2.6	-6.3	4.0%
20	O=c1[nH]cnc2[nH]ncc12	11.4	-2.7	-17.1	6.5	4.8	2.5	-0.5%
21	CNc1ccccc1	x	-0.4	x	-8.8	1.8	-1.1	-0.8%
22	CCCCC1C(=O)N(c2ccccc2)N(c2ccc(O)cc2)C1=O (stereo unspecified)	x	-0.1	-5.7	-8.5	3.9	0.5	-0.8%
23	COC(=O)[C@H]1[C@H]2C[C@@H]3c4[nH]c5cc(OC)ccc5c4CCN3C[C@H]2C[C@@H](OC(=O)c2cc(OC)c(OC)c(OC)c2)[C@@H]1OC	-15.0	0.7	16.6	-5.5	-0.5	-2.6	2.8%
24	NS(=O)(=O)c1ccc(C(=O)O)cc1	-4.0	-1.1	-9.3	8.1	0.1	5.0	2.3%

(next part)
nr	smiles	RXFP1 antag	D2 ag	D1 antagonist	D2 antagonist	D2 PAM	D1 potentiator	RXFP1 ag
25	CC(=O)Nc1cccc(C)c1	x	0.5	x	-15.8	3.7	-4.9	0.7%
26	C[C@]12C=CC(=O)C=C1CC[C@@H]1[C@@H]2[C@@H](O)C[C@@]2(C)[C@H]1CC[C@]2(O)C(=O)CO	-8.1	-0.7	-1.7	18.1	11.0	-1.9	-1.1%
27	CCN1CCN(CCCNC(=O)c2ccc3c(c2)sc2nc(-c4ccc(OC)cc4)cn23)CC1	3.1	1.9	-14.6	x	-2.0	1.9	4.9%
28	CCCCC(=O)N(Cc1ccc(-c2ccccc2-c2nn[nH]n2)cc1)[C@H](C(=O)O)C(C)C	x	-0.9	6.2	-8.7	-2.5	-2.5	1.1%
29	COC(=O)Cc1c[nH]c2cccc(OCC(O)CN(Cc3ccccc3)C(C)C)c12 (stereo unspecified)	-3.0	0.1	-6.2	1.4	-4.9	-2.8	-1.0%
30	CC(=O)N1CCN(c2ccc(OC[C@H]3CO[C@](Cn4ccnc4)(c4ccc(Cl)cc4Cl)O3)cc2)CC1	x	0.4&1.0	-12.2&-18.5	-9.6&17.5	-18.4&11.5	-2.9&-4.0	4.5%&0.8%
31	O=C1OC(c2ccc(O)cc2)(c2ccc(O)cc2)c2ccccc21	6.6	-2.8	-19.0	7.9	-4.9	-2.6	-0.6%
32	CC1CC2C(C(O)CC3(C)C2CCC3(O)C(=O)CO)C2(C)C=CC(=O)C=C12 (stereo unspecified)	-9.1	x	x	x	x	x	x
33	Cc1[nH]c2ccccc2c1/C=N/Nc1ccc([N+](=O)[O-])cc1S(=O)(=O)Nc1ccc(Cl)cc1	-9.6	-0.2	x	-12.9	-9.0	-1.6	-0.5%
34	CC(C)(Oc1ccc(C2CC2(Cl)Cl)cc1)C(=O)O (stereo unspecified)	-7.3	0.4	-1.3	4.4	18.0	-5.8	-1.1%
35	CC(C)Cn1cnc2c(N)nc3ccccc3c21	-7.9	0.1	4.5	-20.8	3.5	-5.8	0.7%
36	O=c1[nH]c(=O)n(C2CC(O)C(CO)O2)cc1I (stereo unspecified)	-8.9	x	x	x	x	x	x

Further compounds:
nr	smiles	RXFP1 antag	D2 ag	D1 antagonist	D2 antagonist	D2 PAM	D1 potentiator	RXFP1 ag
37	O=c1ccc2ccccc2o1	-7.6	-0.3	-10.7	9.3	16.8	-0.3	4.2%
38	COc1ccccc1N1CCN(CC(O)COc2cccc3ccccc23)CC1 (stereo unspecified)	13.1	2.0&4.0&2.2	-67.5*!	86.3*	-31.5&-27.4&-25.0	-3.8&-1.6&-2.7	4.1%&0.8%&-1.3%
39	CNC[C@H](O)c1cccc(O)c1	-3.2	76.8*	-72.6*	90.9*	-27.7	-5.8	8.0%
40	CC1(C)O[C@@H]2C[C@H]3[C@@H]4CCC5=CC(=O)CC[C@]5(C)[C@@]4(F)[C@@H](O)C[C@]3(C)[C@]2(C(=O)CCl)O1	-73.4*	x	26.0	x	11.6	-6.0	-2.7%

Structures above with an NH in an aromatic ring, in the order listed:
nr	smiles	RXFP1 antag	D2 ag	D1 antagonist	D2 antagonist	D2 PAM	D1 potentiator	RXFP1 ag
13	O=c1[nH]cnc2ccccc12	x	0.1	5.6	8.0	1.0	0.5	2.2%
17	Cc1cn([C@H]2C=C[C@@H](CO)O2)c(=O)[nH]c1=O	6.9	2.1&0.4&0.6	-21.1&-4.9	-5.6&1.9&12.3	-11.4&-3.2&-9.1	-3.9&1.0&0.7	-0.4%&1.7%&2.2%
20	O=c1[nH]cnc2[nH]ncc12	11.4	-2.7	-17.1	6.5	4.8	2.5	-0.5%
23	COC(=O)[C@H]1[C@H]2C[C@@H]3c4[nH]c5cc(OC)ccc5c4CCN3C[C@H]2C[C@@H](OC(=O)c2cc(OC)c(OC)c(OC)c2)[C@@H]1OC	-15.0	0.7	16.6	-5.5	-0.5	-2.6	2.8%
28	CCCCC(=O)N(Cc1ccc(-c2ccccc2-c2nn[nH]n2)cc1)[C@H](C(=O)O)C(C)C	x	-0.9	6.2	-8.7	-2.5	-2.5	1.1%
29	COC(=O)Cc1c[nH]c2cccc(OCC(O)CN(Cc3ccccc3)C(C)C)c12 (stereo unspecified)	-3.0	0.1	-6.2	1.4	-4.9	-2.8	-1.0%
33	Cc1[nH]c2ccccc2c1/C=N/Nc1ccc([N+](=O)[O-])cc1S(=O)(=O)Nc1ccc(Cl)cc1	-9.6	-0.2	x	-12.9	-9.0	-1.6	-0.5%
36	O=c1[nH]c(=O)n(C2CC(O)C(CO)O2)cc1I (stereo unspecified)	-8.9	x	x	x	x	x	x
